Compound activity from PubChem BioAssay.
Mtb growth: M. tuberculosis H37Rv growth inhibitors, H37Rv strain (AID 1626); M. tuberculosis H37Rv growth inhibition; higher % means a stronger effect; inhibition, % at 10 µM; hits with a dose series show IC50 in µM; 0.95% of 220,000 active;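 active = confirmed in a dose series; inconclusive = inhibition above 80% but not taken into the dose series; inactive = below 80% or under 30% at every dose of the series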;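 note: bacteria incubated seven days before Alamar blue readout; 0% = bacteria only wells and 100% = bacteria with antibiotic wells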
RecA splice inh: Mtb RecA intein splicing inhibition. 0.75% of 290,000 active. inhibition, %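 (about 9 µM by stock and volumes)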. P9WHJ3. cell-free RecA intein splicing, fluorescence. AID 2221; in the data active = inhibition above about 30%; inconclusive = no clear call, values can overlap the other calls;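 note: 0% = vehicle wells and 100% = reference inhibitor control wells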
Target sequence (P9WHJ3 whole entry, looked up, canonical isoform): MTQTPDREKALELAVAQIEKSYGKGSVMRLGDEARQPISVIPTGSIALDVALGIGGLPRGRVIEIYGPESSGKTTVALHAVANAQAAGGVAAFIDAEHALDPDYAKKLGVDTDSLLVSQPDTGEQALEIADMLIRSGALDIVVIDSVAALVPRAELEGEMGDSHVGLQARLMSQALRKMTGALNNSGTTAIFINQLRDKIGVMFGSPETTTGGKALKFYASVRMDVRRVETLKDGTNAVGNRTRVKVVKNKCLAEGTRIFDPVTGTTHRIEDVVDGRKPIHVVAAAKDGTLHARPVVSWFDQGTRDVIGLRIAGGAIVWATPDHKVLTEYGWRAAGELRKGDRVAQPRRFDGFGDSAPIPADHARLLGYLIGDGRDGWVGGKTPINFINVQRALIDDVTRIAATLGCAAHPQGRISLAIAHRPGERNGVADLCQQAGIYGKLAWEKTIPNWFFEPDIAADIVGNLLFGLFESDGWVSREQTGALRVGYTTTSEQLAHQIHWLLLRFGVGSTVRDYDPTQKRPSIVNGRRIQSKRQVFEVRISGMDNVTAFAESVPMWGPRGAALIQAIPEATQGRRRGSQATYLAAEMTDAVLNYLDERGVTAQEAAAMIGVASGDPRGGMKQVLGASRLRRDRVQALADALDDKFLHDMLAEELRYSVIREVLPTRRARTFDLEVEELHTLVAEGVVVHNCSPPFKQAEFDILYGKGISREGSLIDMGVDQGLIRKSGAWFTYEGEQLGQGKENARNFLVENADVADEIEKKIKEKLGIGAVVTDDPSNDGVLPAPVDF
Mtb betalactam: beta-lactam sensitization of Mtb H37Rv. M. tuberculosis H37Rv growth with meropenem, percent inhibition; hits of this screen are not shown here. inhibition, % at 25 µM. 0.27% of 330,000 active;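 active = about 74% or more and at least 40 points above the plate without the antibiotic, then above 30% in a dose series; inconclusive = first-round hits that could not be retested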;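 note: growth measured after seven days incubation then overnight dye step; 0% = bacteria only wells and 100% = bacteria with antibiotic; twin plates without the antibiotic show which effects depend on it; some results filed as inactive read as strong as hits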
Arbovirus inh: antivirals against arbovirus infection; arbovirus infection cell-based antiviral screen; inhibition, % at 10 µM; 0.37% of 200,000 active; AID 1251;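 active = inhibition from about 30%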;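 note: bluetongue infection of BSR cells; cell survival read as ATP light after 72 h; 0% = infected wells without compound and 100% = uninfected wells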
YopH PTP inh: blocks Yersinia enterocolitica YopH tyrosine phosphatase | fluorescence Ex485/Em525 | inhibition, %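 (about 10 µM by stock and volumes)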 | 0.16% of 140,000 active;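 active = inhibition of 50% or more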;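 note: controls were vehicle for no effect and minimum signal wells for full effect; inactives centre near -20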
Arbovirus inh repeat: also measured in Arbovirus inh; calls as there; inhibition, %; measured here: 10K subset replicate screen; many hits read low in the repeat;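 first of two repeat runs on a subset; 0% = infected and 100% = uninfected wells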
An asterisk follows results filed as active; ? = inconclusive; nt = not tested or not shown.

SMILES	Mtb growth	RecA splice inh	Mtb betalactam	Arbovirus inh	YopH PTP inh	others
CC1(C)CC(NC(=O)C23CCC(C)(C(=O)C2=O)C3(C)C)CC(C)(C)N1 (centres undefined)	1%	-0.3	-11	0	nt
CCc1nn2c(N3CCOCC3)cc(C)nc2c1-c1ccc(F)cc1	6%	0.5	-1	7	-2
COc1ccc(OC)c(-c2csc(NC(=O)CSCc3c(C)noc3C)n2)c1	nt	-0.3	-10	nt	nt
O=C(CN1CCN(Cc2ccccc2Cl)C1=O)N1CCCCCC1	3%	-2.4	-4	-2	-3
O=C(CCCCCn1c(=S)[nH]c2ccc(Br)cc2c1=O)NCC1CCCO1 (centres undefined)	-2%	0.5	-11	-3	-19
CCOC(=O)C1CCCN(c2c(N3CCOCC3)c(=O)c2=O)C1 (centres undefined)	3%	-0.4	4	-4	-3
O=C1[C@@H]2[C@@H]3C[C@@H]([C@H]4ON=C(c5ccc(Cl)cc5)[C@@H]34)[C@@H]2C(=O)N1c1ccc2c(c1)OCO2	-2%	4.8	-2	3	-14
CCC(C)C(NC(=O)/C(=C\c1ccccc1)NC(=O)c1ccc(OC)cc1)C(=O)O (centres undefined)	-3%	-2.6	-8	5	nt
CCN(CC)CCCNC(=O)c1cc2c(=O)n(CC)c3ccccc3c2s1	nt	-0.7	-2	nt	nt
CC(CC(=O)NCCc1ccc(S(N)(=O)=O)cc1)c1ccccc1 (centres undefined)	nt	2.4	0	nt	nt
CCN1CCN(C(=O)c2ccccc2N(Cc2ccccc2)S(=O)(=O)c2ccc(C)cc2)CC1	-18%	0.7	-18	8	0
CCCCN=C(C)c1c(O)c2ccccc2oc1=O	13%	2.4	1	0	-8	Arbovirus inh repeat=-2
Cc1ccc(-n2nc(C)c(NS(=O)(=O)c3ccccc3)c2C)cc1C	-1%	0.4	-7	9	-2
COc1cccc2cc(C(=O)c3ccc([N+](=O)[O-])cc3)oc12	9%	0.3	1	2	nt
CC1Cc2nc(SCC(=O)Nc3ccc4c(c3)OCO4)n(-c3ccc(F)cc3)c(=O)c2S1 (centres undefined)	0%	3.6	-1	-12	nt	Arbovirus inh repeat=-9
CCCn1c(SCC(=O)NC2CCCCC2C)n[nH]c1=O (centres undefined)	-6%	0.7	-13	4	-8
Cc1cccc(/C=N/NC(=O)c2ccc3c(c2)OCCO3)c1O	nt	11	4	nt	nt
CCN(CC)c1ccc(C(=O)c2ccccc2C(=O)O)c(O)c1	-8%	-2.4	-3	-2	-27
Cc1ccc(CNC(=O)Cn2c(=O)n(CC(=O)N3CCCCC3)c(=O)c3sccc32)cc1	nt	-0.7	?	nt	nt
CN(NS(C)(=O)=O)c1c(C#N)c(C(F)(F)F)nn1C	-2%	-1.2	-6	14	nt
O=C(CSc1ccc(-c2ccccc2)nn1)N1CCCc2ccccc21	8%	13	-4	-11	-21
N#Cc1cccc(C(c2nnnn2Cc2ccccc2)N2CCCC2)c1 (centres undefined)	-3%	-1.5	3	1	-22
O=C(CSc1nc(Nc2ccccc2)nc(N2CCOCC2)n1)Nc1cc(Cl)ccc1O	nt	2.1	91	nt	nt
Cc1cccc(NC2=C(NCCO)C(=O)c3ccccc3C2=O)c1	0%	22	1	8	50
COc1ccc(OC)c(C2NC(=O)c3sc(=S)n(-c4ccccc4)c3N2)c1 (centres undefined)	-8%	-7.5	8	-13	-16
COc1ccc(OC)c(N(CC(=O)N2CCCC2)S(=O)(=O)c2ccc(OC)c(OC)c2)c1	-2%	-0.2	-7	12	-5
Cc1ccc(NC(=O)CCC(=O)O)cc1F	-1%	-0.7	-1	8	-11
CN(C)CC/C=C1\c2cc(F)ccc2CSc2ccccc21	10%	1.2	6	-15	-25
O=C(Cc1ccccc1)Nc1cccc(-c2nc3ncccc3o2)c1	2%	nt	-8	4	8
COc1cccc(NC(=S)N(CCN(C)C)Cc2cccs2)c1	9%	0.2	8	10	nt
CCCCN1C(=O)CCC(C(=O)O)C1c1ccc(OC)cc1 (centres undefined)	-3%	0.1	-3	7	-27
CC(COc1ccc(C(C)C)cc1)NC(=O)c1ccc(Br)o1 (centres undefined)	nt	12	-9	nt	nt
Cc1nn(C)c(C)c1/C=N/NC(=O)CCn1cc([N+](=O)[O-])cn1	-2%	0.3	0	8	-8
COc1ccc(-c2sc(Nc3ccccc3)n[n+]2-c2ccc(F)cc2)c(C)c1C	nt	1.0	1	nt	nt
O=C(CN1C(=O)c2ccccc2S1(=O)=O)NCCSCc1cccc(Cl)c1	nt	2.0	-8	nt	nt
COc1ccccc1-c1ccc(SCC(=O)NCc2ccc3c(c2)OCO3)nn1	3%	-0.3	-3	-10	nt
Cc1ccc(CNS(=O)(=O)c2ccc(-c3cnc(C4CC4)o3)cc2)cc1	nt	-8.7	-3	nt	nt
CCN1C(=O)N(c2ccc(C(C)=O)cc2)S(=O)(=O)c2ccccc21	nt	-6.4	-11	nt	nt
O=C1c2ccccc2C(=O)C2OC12 (centres undefined)	nt	2.6	6	nt	nt
COc1ccc(Cc2nnc(NC(=O)c3ccc(OC)c(OC)c3)s2)cc1OC	-5%	18	7	-1	nt
COC(=O)c1ccc(NC(=O)c2ccc3nccnc3c2)cc1	nt	0.2	-5	nt	nt
CCOC(=O)C1CCN(C(=O)c2cc3c(C)cc(C)cc3[nH]2)CC1	nt	-0.7	-2	nt	nt
COc1ccc(/C(N)=C/C(=O)C(C)(C)C)cc1	2%	nt	10	8	-12	Arbovirus inh repeat=-1
COc1cc2c(cc1OC)CN(CC(=O)Nc1ccc(S(=O)(=O)N(C)C)cc1)CC2	-1%	-4.4	7	-1	nt
O=C1NC(=O)/C(=C/C(=O)N2CCOCC2)S1	-8%	-1.3	-4	-4	nt
O=C(O)CCCc1ccc2c(c1)CCc1ccccc1-2	nt	0.6	10	nt	nt
COc1ccc(C(=O)NC(=S)N2CCNC(=O)C2CC(=O)OC(C)C)cc1 (centres undefined)	nt	-0.4	-3	nt	nt
O=C(CCCC(=O)N(CC(=O)NC1CCCC1)Cc1ccccc1Cl)Nc1ccccn1	3%	3.2	3	9	-6
CC(C)C1Cc2c(sc3c2c(=O)n(-c2ccccc2)c2n[nH]c(=S)n32)CO1 (centres undefined)	5%	1.4	3	nt	nt
Cc1ccc(C)c(Nc2nc(N)c3ccccc3n2)c1	7%	-1.0	3	11	nt
Cc1ccccc1N/C(SCc1ccc(Cl)cc1)=C(/C#N)C(=O)NCc1ccco1	17%	0.3	12	3	-26
Cc1ccc(C2CN(C)CC2C(=O)c2ccc(F)cc2)cc1 (centres undefined)	nt	0.6	-2	nt	nt
CCC(C)NC(=O)CCC(=O)Nc1ccc2nc(N3CC(C)CC(C)C3)cc(C)c2c1 (centres undefined)	8%	-6.1	18	-1	nt
CC(NC(=O)C(=O)NN=C1CCC(C(C)(C)C)CC1)c1ccccc1 (centres undefined)	2%	-1.1	-4	2	-22
Cc1cc(C)c2nc(N3CCCC(C(=O)NCCCN4CCOCC4)C3)sc2c1 (centres undefined)	0%	-0.7	7	11	-4
CC1CN(Cc2csc(-c3ccc(Cl)cc3)n2)CC(C)O1 (centres undefined)	-6%	1.3	-2	19	nt
CCC(=O)NC(c1cccs1)c1cc(Cl)c2cccnc2c1O (centres undefined)	-9%	1.9	7	-28	nt
CC1c2ccsc2CCN1C(=O)NC(=O)c1ccc(Cl)cc1 (centres undefined)	nt	0.5	-5	nt	nt
Cc1ccc(C(=O)N/N=C\C=C\c2ccccc2[N+](=O)[O-])cn1	-6%	-4.4	-2	-5	nt
OCC(CO)(CO)NCC(O)CN1c2ccccc2Sc2ccccc21 (centres undefined)	nt	-2.1	1	nt	nt

Structures listed so far containing a tert-butyl group:
SMILES	Mtb growth	RecA splice inh	Mtb betalactam	Arbovirus inh	YopH PTP inh	others
COc1ccc(/C(N)=C/C(=O)C(C)(C)C)cc1	2%	nt	10	8	-12	Arbovirus inh repeat=-1
CC(NC(=O)C(=O)NN=C1CCC(C(C)(C)C)CC1)c1ccccc1 (centres undefined)	2%	-1.1	-4	2	-22

(further entries)
SMILES	Mtb growth	RecA splice inh	Mtb betalactam	Arbovirus inh	YopH PTP inh	others
O=C(CNC(=S)N(CCCN1CCOCC1)Cc1cccs1)NCCCN1CCOCC1	-3%	-1.2	-3	-11	-9
COc1ccccc1/C=N/NC(=O)c1ccc(-c2ccccc2)cc1	10%	-0.8	2	-9	-8
CC1(C)CC(=O)c2cc(C(=O)O)c(=O)n(-c3ccccc3)c2C1	-5%	-3.6	0	5	-4
CC(=O)[C@H]1[C@H](CCc2ccccc2)NC(=O)N(Cc2ccccc2)[C@@H]1C	9%	-2.7	-7	nt	nt
CCCc1nc2cc3c(cc2[nH]1)n(C)c(=O)n3C	nt	-4.8	3	nt	nt
C=CCn1c(O)c(C=NCCCOc2ccc(CC)cc2)c(=O)[nH]c1=S	10%	-1.4	9	-3	-12
CCOC(=O)CN1C(=O)C(O)(c2c(C)[nH]c3ccccc23)c2ccccc21 (centres undefined)	nt	3.5	-1	12	-54
O=C(c1cc([N+](=O)[O-])ccc1N1CCOCC1)N1CCN(c2ccccc2)CC1	nt	-4.7	-2	nt	nt
COc1ccc2nc(C)cc(SCC(=O)N/N=C/c3c(OC)ccc4ccccc34)c2c1	-1%	-6.7	8	-11	-10
O=C(COC(=O)c1oc2ccccc2c1CSc1ccc(Cl)cc1)NC1CCCC1	11%	7.6	8	-4	4
NS(=O)(=O)c1ccc2nc(NC(=O)c3ccc(Br)o3)sc2c1	0%	-0.4	6	-3	nt
COc1ccc(C)cc1S(=O)(=O)n1nc(C)cc1C	-2%	-2.2	-5	4	nt
CCOC(=O)c1cnn(CCOC(=O)c2cccs2)c1NC(=O)c1cccs1	7%	nt	nt	4	-53
N#C/C(=C\Nc1ccc2cn[nH]c2c1)c1nc(-c2ccc(Cl)cc2)cs1	0%	5.1	74	-6	nt
C=CCSc1ncccc1C(=O)O	-2%	-0.3	3	12	-48
Cc1ccc(NC(=O)CCc2nc(-c3cccs3)no2)c(Br)c1	nt	-0.3	1	nt	nt
NS(=O)(=O)c1ccc(NC(=O)COC(=O)COc2ccc3ccccc3c2)cc1	2%	-0.4	-5	5	nt
Cc1cccc(NC(=O)c2nc[nH]c2C(=O)N[C@@H](Cc2ccccc2)C(=O)OCc2ccccc2)c1	-1%	-0.1	-13	nt	nt
CCn1nnnc1SCC(=O)Nc1sc(C)c(C)c1C#N	-7%	-3.0	-6	5	4
COC(=O)c1ccc(NCC(=O)Nc2cc(C)cc(C)c2)cc1	nt	1.0	4	nt	nt
CC(=O)c1ccc(NC(=O)CC(NCCC2=CCCCC2)C(=O)O)cc1 (centres undefined)	-2%	1.9	-7	6	8
CNS(=O)(=O)c1cccc(C(=O)NNC(=O)CN(C)S(=O)(=O)c2ccc(Cl)cc2)c1	nt	-0.5	-8	nt	nt
Cc1ccccc1Nc1c(-c2cccnc2)nc2cccc(C)n12	2%	-1.0	-5	3	nt

Part of the list above in order of SMILES length, high to low.
SMILES	Mtb growth	RecA splice inh	Mtb betalactam	Arbovirus inh	YopH PTP inh	others
COc1ccc(OC)c(N(CC(=O)N2CCCC2)S(=O)(=O)c2ccc(OC)c(OC)c2)c1	-2%	-0.2	-7	12	-5
CCC(C)NC(=O)CCC(=O)Nc1ccc2nc(N3CC(C)CC(C)C3)cc(C)c2c1 (centres undefined)	8%	-6.1	18	-1	nt
COc1ccc(-c2sc(Nc3ccccc3)n[n+]2-c2ccc(F)cc2)c(C)c1C	nt	1.0	1	nt	nt
O=C(COC(=O)c1oc2ccccc2c1CSc1ccc(Cl)cc1)NC1CCCC1	11%	7.6	8	-4	4
Cc1ccc(C(=O)N/N=C\C=C\c2ccccc2[N+](=O)[O-])cn1	-6%	-4.4	-2	-5	nt
CC(=O)c1ccc(NC(=O)CC(NCCC2=CCCCC2)C(=O)O)cc1 (centres undefined)	-2%	1.9	-7	6	8
CCN(CC)CCCNC(=O)c1cc2c(=O)n(CC)c3ccccc3c2s1	nt	-0.7	-2	nt	nt
O=C(CSc1ccc(-c2ccccc2)nn1)N1CCCc2ccccc21	8%	13	-4	-11	-21
N#Cc1cccc(C(c2nnnn2Cc2ccccc2)N2CCCC2)c1 (centres undefined)	-3%	-1.5	3	1	-22
OCC(CO)(CO)NCC(O)CN1c2ccccc2Sc2ccccc21 (centres undefined)	nt	-2.1	1	nt	nt
CC1c2ccsc2CCN1C(=O)NC(=O)c1ccc(Cl)cc1 (centres undefined)	nt	0.5	-5	nt	nt
COc1cccc(NC(=S)N(CCN(C)C)Cc2cccs2)c1	9%	0.2	8	10	nt
CCCc1nc2cc3c(cc2[nH]1)n(C)c(=O)n3C	nt	-4.8	3	nt	nt
COc1ccc(C)cc1S(=O)(=O)n1nc(C)cc1C	-2%	-2.2	-5	4	nt
O=C1c2ccccc2C(=O)C2OC12 (centres undefined)	nt	2.6	6	nt	nt

Some of the compounds tested, so the mix of outcomes need not match the whole.
